Compound activity from PubChem.
AmpC nodet inh: Promiscuous and Specific Inhibitors of AmpC Beta-Lactamase (assay without detergent) | AID 585, 2007 | P00811 | hit rate 1.8% among 71,000 | AmpC nitrocefin hydrolysis, absorbance 480 nm, no detergent; potencies from a single point are estimates | Potency, µM (highest dose often 28.7 µM), for inactives: top-dose activity change, negative = inhibition; active = falling curve, for most hits resting on a single point; inconclusive = weak or doubtful change; inactive = flat or rising curve; further: % of control where 0% means no effect; about half of the hits show no inhibition at the top dose; a quarter of the inactives give rising signals
Target sequence (P00811 whole entry, looked up): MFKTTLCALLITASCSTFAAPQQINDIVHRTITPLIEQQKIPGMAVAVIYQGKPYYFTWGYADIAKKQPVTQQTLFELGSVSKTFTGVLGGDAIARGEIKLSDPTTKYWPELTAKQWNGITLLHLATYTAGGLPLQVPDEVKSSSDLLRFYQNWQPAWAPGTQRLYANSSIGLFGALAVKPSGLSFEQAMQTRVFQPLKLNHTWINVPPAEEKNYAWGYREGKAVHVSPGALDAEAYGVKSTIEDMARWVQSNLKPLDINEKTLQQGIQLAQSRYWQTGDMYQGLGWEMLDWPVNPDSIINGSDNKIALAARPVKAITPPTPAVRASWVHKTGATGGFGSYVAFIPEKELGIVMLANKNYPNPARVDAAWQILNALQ
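Enzyme, pH 7.0 phosphate. Compound titrations were pre-incubated with AmpC for 15 min at room temperature before nitrocefin (stock 800 uM) addition; product formation was recorded at 480 nm every 20 s for 4 min.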
* = called active by the depositor; ? = inconclusive; [ ] = dose if it differs, or a comment. Potency means the concentration at half of the fitted maximal effect. Some of the compounds tested (hit frequency here may not be typical).

SMILES	AmpC nodet inh
Cc1ccc(NC(=O)N2CCC(C(N)=O)CC2)cc1	-5.4%
CCc1nc(NCc2ccccn2)c2oc3ccccc3c2n1	13.3%
CC1CCN(C(=O)CSc2nc3cccnc3n2C)CC1	5.2%
O=C(NCc1ccc2c(c1)OCO2)C1CCCN1C(=O)Nc1cccc(Cl)c1 (stereo unspecified)	7.4%
COc1ccc2nc(Nc3nc(C)c(CCC(C)C)c(=O)[nH]3)nc(C)c2c1	-14.6%
O=C(Cn1c(-c2ccccc2)noc1=O)Nc1ccc(S(=O)(=O)N2CCOCC2)cc1	19.0%
CCOC(=O)C1CCCN(c2ncnc3c2cnn3-c2ccc(OC)cc2)C1 (stereo unspecified)	79.6%
N#Cc1nc(COc2ccccc2)oc1NCCN1CCOCC1	31.9%
CC(=O)N1CCc2cc(S(=O)(=O)NCCCN3CCN(Cc4ccccc4)CC3)ccc21	26.7%
COc1ccc(S(=O)(=O)Nc2ccc3c(c2)COC3=O)cc1OC	-9.8%
O=C(CN1C(=O)c2ccccc2S1(=O)=O)NC1CC2CCC1C2 (stereo unspecified)	13.7%
Cc1ccc(-c2nnc(Nc3ccccc3)o2)cc1	-5.1%
CCC(=O)O[C@@]1(C(=O)CCl)[C@@H](C)C[C@@H]2[C@H]3CCC4=CC(=O)C=C[C@@]4(C)[C@]3(F)[C@@H](O)C[C@@]21C	36.8%[12.8 µM]
COc1c2ccoc2nc2c(OC)c(OCC(O)C(C)(C)O)ccc12 (stereo unspecified)	16.1%
Oc1ccc(N2CCN(C(c3cccnc3)c3nnnn3Cc3ccccc3)CC2)cc1 (stereo unspecified)	24.5%
CCOC(=O)C1=C(C)NC(=O)NC1c1ccc(OC)c(CN2CCOCC2)c1 (stereo unspecified)	23.1%
Cc1cc(Nc2ccc(C)c(C)c2)n2nc(C)nc2n1	48.9%
CC(c1ccco1)N(C(=O)Nc1ccc(Cl)cc1)c1ccccn1 (stereo unspecified)	2.6%
O=C(Cn1nnc(-c2ccccc2)n1)NCc1cccs1	-12.6%
Cc1cccc(NC(=O)c2cc(NC(=O)c3ccco3)ccc2Cl)n1	-14.7%
CC12CN3CCN(CC(C3)C1(O)CN1CCOCC1)C2 (stereo unspecified)	-18.3%
Cc1nnc(NC(=O)CSc2nnc(Cc3ccccc3)n2-c2ccccc2)s1	63.6%
COCCn1c(SCC(=O)Nc2cc(Cl)ccc2OC)nc2c(c1=O)SC(C)C2 (stereo unspecified)	23.6%
CCn1ncc(Br)c1C(=O)Nc1ccc(Cl)cn1	-7.1%
CCOc1ccc2nc(N)sc2c1	-16.7%

Arranged by molecular weight (descending): some entries from above
SMILES	AmpC nodet inh
CC(=O)N1CCc2cc(S(=O)(=O)NCCCN3CCN(Cc4ccccc4)CC3)ccc21	26.7%
CCOC(=O)C1=C(C)NC(=O)NC1c1ccc(OC)c(CN2CCOCC2)c1 (stereo unspecified)	23.1%
CC1CCN(C(=O)CSc2nc3cccnc3n2C)CC1	5.2%

More structures follow.
SMILES	AmpC nodet inh
CCN1CCN(S(=O)(=O)c2ccc(S(=O)(=O)N(CC)Cc3ccccc3)cc2)CC1	75.3%
O=c1c(-c2ccc(Cl)cc2)nc2cncnc2n1Cc1ccccc1	-6.2%
CC(C)c1nnc(NC(=O)CCCC(=O)O)s1	7.5%
Cc1nc(COC(=O)c2c(C)nn(-c3ccccc3)c2C)cs1	59.9%
Cc1ccc2oc(=O)c3cc(C(=O)NCCN4CCN(C)CC4)sc3c2c1	3.98µM*[single pt active]
CC1CCN(c2nc(-c3ccc(F)cc3)cc(C(F)(F)F)n2)CC1	-9.5%
CN(C)c1ccc(-c2nc(Nc3ccncc3)c3ccccc3n2)cc1	35.3%
CCN1C(=O)c2cccc3c(NS(=O)(=O)c4ccc(NC(C)=O)cc4)ccc1c23	3.5%
COc1cccc(NC(=O)c2ccc(CN3CCOCC3)cc2)c1	14.9%
CCc1ccccc1N(C(=O)CCC(=O)Nc1cc(C)on1)C(C(=O)NC1CCCC1)c1ccco1 (stereo unspecified)	50.8%
COc1cccc(Nc2ncc3nc(CCc4ccccc4)c(=O)n(CCC#N)c3n2)c1	3.7%
CC(NC(=O)c1cc(-c2ccccc2)on1)c1ccccc1 (stereo unspecified)	-13.7%
CCOC(=O)COc1cccc2c(=O)n(CC(=O)N3CCc4ccccc43)ccc12	-14.8%
COc1ccc(N(CC(=O)Nc2cc(Cl)ccc2OC)S(=O)(=O)c2c(C)noc2C)cc1	15.2%
NCCC[C@@H](N)C(=O)O	3.3%[5.75 µM]
CCOC(=O)Nc1ccc(S(=O)(=O)Nc2nccc(C)n2)cc1	0.2%
CCOC(=O)C1=C(C)NC(=O)NC1c1cccc(O)c1 (stereo unspecified)	7.8%
Cc1ccc(N(C(=O)c2cccs2)C2C=CS(=O)(=O)C2)cc1 (stereo unspecified)	15.3%
COc1ccc(OC)c(C(c2nnnn2Cc2ccccc2)N2CCC(C(N)=O)CC2)c1 (stereo unspecified)	57.0%
Cc1cc(C)cc(N(CC(=O)N2CCN(Cc3ccccc3)CC2)S(=O)(=O)c2c(C)noc2C)c1	3.98µM*[single pt active]
CCOC(=O)N1CCN(c2c(N3CCc4ccccc43)c(=O)c2=O)CC1	3.98µM*[single pt active]
CCCCC(=O)Nc1ccc(Br)cc1C(=O)O	-17.9%
Cc1onc(-c2c(F)cccc2Cl)c1C(=O)NCCCN1CCOCC1	14.2%
Nc1c2c(nc3ccccc13)CCC2	-8.9%
Cc1sc2ncn(CC(=O)NCCCC(=O)N3CCN(c4ccccn4)CC3)c(=O)c2c1C	102.8%

Reprinted from the part before: five compounds; new compounds follow.
SMILES	AmpC nodet inh
CCOC(=O)N1CCN(c2c(N3CCc4ccccc43)c(=O)c2=O)CC1	3.98µM*[single pt active]
CCCCC(=O)Nc1ccc(Br)cc1C(=O)O	-17.9%
Cc1onc(-c2c(F)cccc2Cl)c1C(=O)NCCCN1CCOCC1	14.2%
Nc1c2c(nc3ccccc13)CCC2	-8.9%
Cc1sc2ncn(CC(=O)NCCCC(=O)N3CCN(c4ccccn4)CC3)c(=O)c2c1C	102.8%
CCOC(=O)CC(=O)CSc1ncnc2c1oc1ccccc12	18.7%
CCOC(=O)c1nnsc1NC(C)=O	-6.1%
OC(c1cccc(OCc2ccccc2)c1)c1nnc(-c2ccccc2)o1 (stereo unspecified)	14.4%
O=C(CC(c1ccccc1)c1ccccc1)Nc1ncn[nH]1	10.1%
CC(=O)Nc1cccc(-c2nnc3n2CC(C)S3)c1 (stereo unspecified)	-3.2%
CCn1cc(C(=O)N2CCCC2)c(=O)c2cc(S(=O)(=O)N3CCOCC3)ccc21	-16.4%
COc1cc2c(=O)n(Cc3ccccc3)c(=O)n(CC(=O)NCc3ccco3)c2cc1OC	31.0%
CC(C)c1cc(C(=O)Nc2sc3c(c2C#N)CCC3)no1	-9.4%
CN1CCN(c2nc(-c3ccccc3)c3cc(Cl)ccc3n2)CC1	74.9%
O=C1CC(Nc2ccc(N3CCOCC3)cc2)C(=O)N1Cc1ccccc1 (stereo unspecified)	33.4%
COc1cccc(C2(O)CCN(C(=O)C3CCC3)CC2)c1	10.8%
CC(=O)N1CC=CC1(C)C(=O)O (stereo unspecified)	-3.7%
Cc1cccc(OCC(=O)NCCN2CCOCC2)c1	22.8%
COc1ccc(C2C(C#N)=C(N)Oc3cc(O)ccc32)cc1OC (stereo unspecified)	-18.9%
COc1ccc(NC(=O)COc2nsnc2N2CCCCC2)cc1	-5.0%
CCCc1cc(C(=O)Nc2ccccc2SC)no1	6.0%
CCOc1ccc(C2=[N+]([O-])C(C)(C)N(O)C2(C)C)cc1	6.1%
CC(Sc1ncc(C#N)c(N)n1)C(=O)Nc1ccccc1 (stereo unspecified)	-3.5%
CCCCn1nnnc1NCc1cccc(OC)c1OC	-4.5%
COc1ccc(NC(=O)CSc2nnc(-c3ccccc3)n2N)cc1	-0.8%
N[C@@H](Cc1cc(-c2ccc(Cl)cc2Cl)cc(CP(=O)(O)O)c1O)C(=O)O	?
Cc1[nH]c(=O)[nH]c(=O)c1S(=O)(=O)N1CCCC(C(=O)NCc2ccco2)C1 (stereo unspecified)	6.6%
O=C(NCCN1CCOCC1)c1csc2c1CCCC2	-6.7%
Cn1cccc1C(=O)N1CCN(c2cccc(C(F)(F)F)c2)CC1	51.3%
CC(=O)O[C@]1(C(C)=O)CC[C@H]2[C@@H]3C[C@H](C)C4=CC(=O)CC[C@]4(C)[C@H]3CC[C@@]21C	16.8%
(continued)
SMILES	AmpC nodet inh
CCC(C(=O)Nc1ccccc1OC)n1c(C(=O)OC)cc2ccsc21 (stereo unspecified)	17.7%
Cc1cccc(Cn2c(=O)n(CCCC(=O)NCc3ccco3)c(=O)c3ccccc32)c1	55.2%
CCn1c(SCC(=O)Nc2c(C)n(C)n(-c3ccccc3)c2=O)nnc1-c1cccc(C)c1	22.8%
Nc1nc(SCC(=O)N2CCc3ccccc32)[nH]c(=O)c1-c1ccccc1	0.4%
Cc1ccc2nc(NC(=O)C3CCCN(S(=O)(=O)c4cccnc4)C3)sc2c1 (stereo unspecified)	3.98µM*[single pt active]
Cc1cc(C(=O)CSc2nnc(Nc3ccccc3)s2)c(C)n1CC1CCCO1 (stereo unspecified)	-15.5%
c1ccc2c(c1)[nH]c1nc3nncn3nc12	-2.1%
COc1cccc(OCC(=O)Nc2ccc(OC)c(OC)c2)c1	19.4%
NC(=O)CSc1nnc2sc3ccccc3n12	-14.3%
COCCn1c(=S)[nH]c2cc(C(=O)N3CCN(c4ccc(F)cc4)CC3)ccc2c1=O	24.9%
O=c1c(-c2ccc(F)cc2)nc2cnc(Oc3ccccc3)nc2n1C1CC1	6.7%
CN1C(=O)c2ccc(C(=O)NCc3ccccc3)cc2C1=O	11.2%
CCC1C(=O)N=C(SCC(=O)Nc2ccc(C(=O)OC)cc2)NC1=O (stereo unspecified)	-15.6%
CCOC(=O)c1cn2nc(OP(=S)(OCC)OCC)cc2nc1C	60.3%
c1coc(Cn2nnnc2CN2CCN(C3CCCC3)CC2)c1	-9.7%
CC(=O)c1cccc(NC(=O)Nc2c(C)nn(C)c2C)c1	7.1%
CC(=O)c1cccc(NC2=NCC(C)S2)c1 (stereo unspecified)	-12.1%
CCOc1cccc(OCCCCn2ccnc2)c1	26.7%
COc1cccc(Nc2ncc3nc(-c4ccc(F)cc4)c(=O)n(CCC#N)c3n2)c1	8.4%
CCCCCc1cc(O)cc(O)c1	-7.8%
OC(c1ccccc1)c1nc2ccccc2s1 (stereo unspecified)	-11.3%
COc1ccc(S(=O)(=O)N(C)CC(=O)Nc2cccc(C(C)=O)c2)cc1	-7.0%
Cc1cc(C)n2nc(SCC(=O)Nc3c(C)nn(-c4ccccc4)c3C)nc2n1	22.3%
COc1ccc(-n2ncc3c(=O)n(CC(=O)OCc4ccccc4)cnc32)cc1	-15.6%
CCC1(C)CC(=O)N(c2ccc(C(=O)O)c(O)c2)C1=O (stereo unspecified)	5.8%

Looked up one by one from the entries so far, two records:
SMILES	AmpC nodet inh
CCn1c(SCC(=O)Nc2c(C)n(C)n(-c3ccccc3)c2=O)nnc1-c1cccc(C)c1	22.8%
c1ccc2c(c1)[nH]c1nc3nncn3nc12	-2.1%

Next records follow.
SMILES	AmpC nodet inh
O=C(O)CSCCc1ccccc1	-3.3%[5.75 µM]
CCOC(=O)Cn1c(=O)c2c(nc(N3CCCCC3)n2Cc2ccccc2)n(C)c1=O	108.2%
COc1ccc2noc3c2c1C(=O)c1ccccc1-3	26.2%
Nc1ncnc2c1ncn2[C@@H]1CCCO1	-2.9%
C[C@@H]1[C@H]2CC[C@@H]3[C@@H]4CC=C5C[C@@H](N(C)C)CC[C@]5(C)[C@@H]4CC[C@@]32CN1C	12.7%[12.8 µM]
COc1cccc(-n2c(SC3CCOC3=O)nc3ccccc3c2=O)c1 (stereo unspecified)	-4.8%
COCC(=O)NCc1nc2ccccc2n1Cc1ccccc1F	2.6%
CCCCNc1nc(N(C)c2ccccc2)nc(-n2ccnc2)n1	28.2%
NC(=O)c1ccc(NC(=O)CCCc2nc(-c3ccccc3Cl)no2)cc1	-7.2%
N#Cc1c(-n2cccc2/C=N/O)sc2c1CCCC2	-0.5%
CCCn1nc2ccccc2c1P(=N)(N1CCOCC1)N1CCOCC1	-12.1%
O=C1CCC(c2ccccc2)(c2ccccc2)CC1	8.2%[5.75 µM]
Cc1noc(C)c1C(=O)N1CCC2(CC1)CN(c1cccc(-c3ccccc3)c1)C2	0.9%
CC12CCC(C(=O)N3CCc4ccccc43)(CC1=O)C2(C)C (stereo unspecified)	33.2%
COc1ccc(-c2cc(=O)c3c(O)cc(O)cc3o2)cc1	-20.0%[12.8 µM]
COc1ccccc1NC(=O)CSc1nnc(Cc2cccn2C)n1-c1ccc(F)cc1	137.6%
COc1cccc(-c2nccc(NC3CCNCC3)n2)c1	-13.9%
COc1ccc(N(Cc2cc3cc(OC)ccc3[nH]c2=O)C(=O)C2CCCO2)cc1 (stereo unspecified)	31.9%
Cc1ccc(-c2nn(CC(=O)Nc3ccc4c(c3)nc3n4CCOC3)c(=O)c3ccccc23)cc1	32.5%
COc1ccccc1OCc1nc(C#N)c(N2CCC(C(N)=O)CC2)o1	7.1%
Cc1ccc(NC(=O)c2cnn(-c3ccccc3)c2NC(=O)c2ccco2)cc1C	5.7%
COCCCNC(=O)CC1Oc2ccccc2NC1=O (stereo unspecified)	-9.3%
O=C(O)C1CC=CCC1C(=O)NCc1cn2ccccc2n1 (stereo unspecified)	17.3%
COC(=O)c1ccc(Oc2cc(C)nc(NCc3ccccc3)n2)cc1	-2.5%
CC(C)n1c(C(=O)OCC(=O)NCc2ccc3c(c2)OCO3)cc2sccc21	-11.6%
O=C1CCCCCN1C(=O)c1ccc(C(=O)N2CCCCCC2=O)cc1	20.2%
Cc1ccc(-n2c(=O)c3sccc3n(CC(=O)NCc3ccco3)c2=O)cc1	-20.3%
CC(C)COC(=O)COc1cc(Cl)c(Cl)cc1Cl	-11.0%
COCC(=O)N1CCC2(CC1)CCN(c1ccccn1)CC2	7.6%
CS(=O)(=O)Nc1cccc(-c2nc(NCc3cccs3)c3ccccc3n2)c1	-19.4%
